Screening results deposited in PubChem BioAssay by Broad Institute.
DUX4 inh = DUX4-mediated transcription inhibition; 293T-iDUX4 ZSCAN4-Gaussia luciferase reporter, 24 h; hits give low values; activity change, negative = inhibition, % (no concentration beside the values); hit rate 0.8% among 37,000; AID 1224904;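 active = -10% or lower and over 25 points stronger than a control reporter; inconclusive = -10% or lower with a smaller gap; inactive = above -10%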;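 note: 0% = median of neutral control wells and -100% = median of positive control wells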
DUX4 inh difference = further read-out of DUX4 inh, marked with its call; Gaussia minus Italica difference, %; measured here: selective DUX4 reporter inhibition;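 worked out from the two reporters; negative = selective loss of the DUX4 reporter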
DUX4 inh control = also measured in DUX4 inh; calls as there; activity change, negative = inhibition, %; measured here: Italica tet-on control reporter;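 0 = neutral control and -100 = positive control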
* marks the source's active call; other numbers are inactive results; & = joins results of further samples. A portion of the library; rates above refer to the full screens.

For N#C[C@@H]1[C@H](c2ccccc2-c2ccc(F)cc2)[C@@H](CO)N1c1ncc(-c2ccccc2)s1 the results were DUX4 inh inconclusive.
CCN(C[C@@H]1N[C@H](CO)[C@H]1c1ccc(-c2cccc(C#N)c2)cc1)C(=O)COC was read as DUX4 inh 0, DUX4 inh difference 1 and DUX4 inh control -1.0.
O=C(CN1CCOCC1)N1CCCCN2[C@@H](CO)[C@H](c3ccc(/C=C/c4ccccc4)cc3)[C@@H]2C1 was read as DUX4 inh -3, DUX4 inh difference -4 and DUX4 inh control 0.3.
For COc1ccc2c3c([nH]c2c1)[C@@H](CO)NCC31CCN(C(=O)c2ccccc2)CC1 the results were DUX4 inh 4, DUX4 inh difference 6 and DUX4 inh control -2.0.
O=C(C[C@H]1CC[C@H](NC(=O)CC2CC2)[C@@H](CO)O1)NCc1ccc(-c2ccccc2)cc1 was read as DUX4 inh 3, DUX4 inh difference 4 and DUX4 inh control -1.0.
Screening C[C@H](CO)N1C[C@H](C)[C@H](CN(C)S(=O)(=O)c2cccc(C#N)c2)OCc2cn(nn2)CCCC1=O returned DUX4 inh 10, DUX4 inh difference 8 and DUX4 inh control 2.3.
For O=C(NC1Cc2ccccc2C1)[C@@H]1[C@@H](CO)[C@@H]2Cn3c(ccc(-c4ccccc4)c3=O)[C@H]1N2 the results were DUX4 inh -1, DUX4 inh difference -3 and DUX4 inh control 1.7.
For COc1cccc(S(=O)(=O)Nc2ccc3c(c2)C(=O)N(C)[C@H]2CC[C@@H](CC(=O)O)O[C@@H]2CO3)c1 the results were DUX4 inh 1, DUX4 inh difference -1 and DUX4 inh control 1.8.
Screening COc1cccc(NC(=O)Nc2ccc3c(c2)C(=O)N(C)[C@H]2CC[C@H](CC(=O)NCCc4ccccc4)O[C@H]2CO3)c1 returned DUX4 inh 3, DUX4 inh difference 4 and DUX4 inh control -1.0.
CN1C(=O)c2cc(NC(=O)c3ccc(C(F)(F)F)cc3)ccc2OC[C@H]2O[C@H](CC(=O)NCc3ccc4c(c3)OCO4)CC[C@H]21 was read as DUX4 inh 1, DUX4 inh difference -1 and DUX4 inh control 2.1.
`CC(=O)N1C[C@@H]2N[C@H](C1)C2c1ccc(-c2ccccc2)cc1` (stereo not given in full) gave DUX4 inh 1, DUX4 inh difference 2 and DUX4 inh control -1.0.
For CCCN1[C@@H]2c3ccc(C4=CCCC4)c(=O)n3C[C@H]1[C@H](CO)[C@H]2C(=O)N(C)C the results were DUX4 inh 8, DUX4 inh difference 5 and DUX4 inh control 3.0.
Screening CC(=O)N1[C@H](CN(CC(C)C)C(=O)c2ccccn2)[C@H](c2ccccc2)[C@@H]1CO returned DUX4 inh -1, DUX4 inh difference -1 and DUX4 inh control 0.7.
`CCCN1C[C@@H](C)[C@@H](OC)CN(C)C(=O)c2cc(NC(=O)c3ccccc3F)ccc2OC[C@H]1C` gave DUX4 inh 5, DUX4 inh difference 4 and DUX4 inh control 0.4.
For CCC(=O)N1Cc2cc(C(=O)NCCOC)nc(-c3cccc(-c4ccc(C#N)cc4)c3)c2[C@H]1CCO the results were DUX4 inh 0, DUX4 inh difference -2 and DUX4 inh control 1.8.
For COc1ccc(S(=O)(=O)N(C)C[C@H]2Oc3ccc(NC(=O)CCN4CCOCC4)cc3CC(=O)N([C@@H](C)CO)C[C@H]2C)cc1 the results were DUX4 inh -3, DUX4 inh difference -3 and DUX4 inh control -0.4.
Screening O=C(C[C@@H]1CC[C@H]2[C@@H](COC[C@@H](O)CN2Cc2ccc(Oc3ccccc3)cc2)O1)Nc1nccs1 returned DUX4 inh inconclusive.
For O=C(O)C[C@@H]1C=C[C@H](NC(=O)Nc2cc(F)ccc2F)[C@H](CO)O1 the results were DUX4 inh 2, DUX4 inh difference -4 and DUX4 inh control 6.2.
Screening C[C@H]1CN([C@@H](C)CO)C(=O)CCCn2nncc2CO[C@H]1CN(C)Cc1ccc(O)cc1 returned DUX4 inh 0, DUX4 inh difference 3 and DUX4 inh control -3.3.
`COCC(=O)Nc1ccc2c(c1)[C@H]1C[C@@H](CC(=O)NCc3cccnc3)O[C@@H](CO)[C@H]1O2` gave DUX4 inh 6, DUX4 inh difference 5 and DUX4 inh control 0.6.
Screening COc1cccc(S(=O)(=O)N2C[C@H](O)COC[C@@H]3O[C@H](CC(=O)N4CCN(c5ccccc5)CC4)CC[C@H]32)c1 returned DUX4 inh 5, DUX4 inh difference 4 and DUX4 inh control 0.9.
CN1C(=O)c2cc(NC(=O)c3cnccn3)ccc2OC[C@@H]2O[C@@H](CC(=O)N[C@@H]3CCN(Cc4ccccc4)C3)CC[C@H]21 was read as DUX4 inh 0, DUX4 inh difference 0 and DUX4 inh control 0.8.
COc1cccc(C(=O)Nc2ccc3c(c2)OC[C@@H](C)N(C)C[C@H](C)[C@H](OC)CN(C)C3=O)c1 was read as DUX4 inh 3, DUX4 inh difference -3 and DUX4 inh control 5.8.
For COCC(=O)N1[C@@H](CO)[C@@H](c2ccccc2)C12CN(C(=O)c1ccc(F)cc1)C2 the results were DUX4 inh 6, DUX4 inh difference -2 and DUX4 inh control 8.5.
Screening C[C@H](NC(=O)[C@H]1[C@H](CO)[C@H]2Cn3c(cccc3=O)[C@H]2N1Cc1cccnc1)c1ccccc1 returned DUX4 inh -3, DUX4 inh difference -14 and DUX4 inh control 11.
CCNC[C@@H]1[C@H](c2ccc(-c3ccc(F)cc3)cc2)[C@H](CO)N1S(C)(=O)=O was read as DUX4 inh 1, DUX4 inh difference 0 and DUX4 inh control 1.3.
Screening CCS(=O)(=O)Nc1ccc2c(c1)C(=O)N(C)[C@H]1CC[C@H](CC(=O)NC)O[C@@H]1CO2 returned DUX4 inh -1, DUX4 inh difference -1 and DUX4 inh control 0.3.
`O=C(C1CCOCC1)N1CC(=O)N2[C@H](CO)[C@@H](c3ccc(/C=C/c4ccccc4)cc3)[C@@H]2C1` gave DUX4 inh -7, DUX4 inh difference -1 and DUX4 inh control -5.5.
For CN1CCN(C(=O)C[C@@H]2CC[C@@H]3[C@H](COC[C@@H](O)CN3Cc3cccc(-c4ccncc4)c3)O2)CC1 the results were DUX4 inh inconclusive.
`O=C(NC1Cc2ccccc2C1)[C@H]1[C@H](CO)[C@H]2Cn3c(cccc3=O)[C@H]2N1C(=O)c1ccccn1` gave DUX4 inh 4, DUX4 inh difference 9 and DUX4 inh control -4.6.
`O=C(C[C@@H]1C[C@@H]2c3cc(NC(=O)CC4CC4)ccc3O[C@@H]2[C@H](CO)O1)NCCN1CCCCC1` gave DUX4 inh -8, DUX4 inh difference -8 and DUX4 inh control 0.5.
For CN1CCCCN2[C@H](CO)[C@H](c3ccc(C#CC4(O)CCCC4)cc3)[C@H]2C1 the results were DUX4 inh -1, DUX4 inh difference -10 and DUX4 inh control 8.9.
For CC(C)NC(=O)N(C)C[C@@H]1Oc2ccc(NC(=O)c3ccncc3)cc2C(=O)N([C@H](C)CO)C[C@H]1C the results were DUX4 inh 0, DUX4 inh difference 4 and DUX4 inh control -4.7.
Screening O=C(C[C@@H]1CC[C@H]2[C@@H](COC[C@@H](O)CN2C(=O)c2ccc(F)cc2)O1)NC1Cc2ccccc2C1 returned DUX4 inh inconclusive.
`C[C@H](CO)N1C[C@H](C)[C@H](CN(C)Cc2cccc(O)c2)OCc2cn(nn2)CCCC1=O` gave DUX4 inh -5, DUX4 inh difference -8 and DUX4 inh control 2.7.
`CO[C@@H]1CN(C)C(=O)c2cc(NC(=O)CC(F)(F)F)ccc2OC[C@H](C)N(C(C)=O)C[C@@H]1C` gave DUX4 inh 0, DUX4 inh difference -3 and DUX4 inh control 3.5.
For COCC(=O)N1CC[C@@H]2[C@H](CO)Nc3ccc(C#Cc4ccccc4)cc3[C@@H]21 the results were DUX4 inh -1, DUX4 inh difference 3 and DUX4 inh control -3.8.
CNC[C@H]1OCCCC[C@@H](C)Oc2ccc(N)cc2C(=O)N([C@H](C)CO)C[C@@H]1C was read as DUX4 inh -5, DUX4 inh difference -1 and DUX4 inh control -4.1.
CCCC#Cc1cnc2c(c1)C(=O)N([C@H](C)CO)C[C@@H](C)[C@H](CN(C)C(=O)C1CCC1)O2 was read as DUX4 inh 0, DUX4 inh difference 0 and DUX4 inh control -0.6.
`COc1ccccc1C(=O)Nc1ccc2c(c1)C(=O)N(C)[C@H]1CC[C@H](CC(=O)NCc3ccc(Cl)c(Cl)c3)O[C@@H]1CO2` gave DUX4 inh 0, DUX4 inh difference -2 and DUX4 inh control 2.3.
`O=C1CNC[C@@H]2[C@H](c3ccc(C#Cc4cccnc4)cc3)[C@@H](CO)N12` gave DUX4 inh 6, DUX4 inh difference 6 and DUX4 inh control 0.3.
Screening Cc1noc(C)c1C(=O)N(C)C[C@H]1OCc2ccccc2-c2c(n(C)c3ccccc23)C(=O)N([C@@H](C)CO)C[C@H]1C returned DUX4 inh -5, DUX4 inh difference -8 and DUX4 inh control 3.1.
For OC[C@H]1[C@H](c2ccc(-c3cccnc3)cc2)[C@@H]2CN(Cc3ccccn3)CCCCN12 the results were DUX4 inh 27, DUX4 inh difference 18 and DUX4 inh control 8.5.
`CCS(=O)(=O)N1Cc2cc(C(=O)N(C)C)nc(-c3cccc(-c4ccc(C#N)cc4)c3)c2[C@@H]1CCO` gave DUX4 inh 0, DUX4 inh difference -3 and DUX4 inh control 3.1.
`C[C@H](CO)N1C[C@H](C)[C@H](CN(C)C(=O)Nc2ccc3c(c2)OCO3)OCCCC[C@H](C)Oc2ccc(NS(=O)(=O)c3ccc(F)cc3)cc2C1=O` gave DUX4 inh 1, DUX4 inh difference -1 and DUX4 inh control 1.7.
For CCCNC(=O)Nc1ccc2c(c1)C(=O)N(C)[C@@H]1CC[C@H](CC(=O)NC)O[C@@H]1CO2 the results were DUX4 inh 1, DUX4 inh difference -2 and DUX4 inh control 2.9.
`CCS(=O)(=O)N1CC2(C1)[C@H](c1ccccc1)[C@H](CO)N2C(=O)C1CCC1` gave DUX4 inh 7, DUX4 inh difference 4 and DUX4 inh control 2.8.
`CCS(=O)(=O)Nc1ccc2c(c1)C(=O)N(C)[C@H]1CC[C@H](CC(=O)N[C@@H]3CCN(Cc4ccccc4)C3)O[C@H]1CO2` gave DUX4 inh 1, DUX4 inh difference 3 and DUX4 inh control -2.5.
CCNC(=O)Nc1ccc2c(c1)C(=O)N(C)[C@@H]1CC[C@H](CC(=O)NC3CCCCC3)O[C@H]1CO2 was read as DUX4 inh 1, DUX4 inh difference -3 and DUX4 inh control 4.5.
`CC(=O)N(CC1CCC1)C[C@@H]1N[C@@H](CO)[C@H]1c1ccc(C2=CCCC2)cc1` gave DUX4 inh -1, DUX4 inh difference -1 and DUX4 inh control -0.1.
`CO[C@H]1CN(C)C(=O)c2ccc(NC(C)=O)cc2OC[C@@H](C)N(Cc2cccnc2)C[C@H]1C` gave DUX4 inh 3, DUX4 inh difference -4 and DUX4 inh control 7.1.
Screening COc1cccc(NC(=O)N2[C@@H]3CNC[C@H]2C3c2ccc(-c3cccnc3)cc2)c1 (stereo not given in full) returned DUX4 inh 5&10, DUX4 inh difference 13&4 and DUX4 inh control -7.5&5.9.
CCCN1[C@@H]2c3ccc(-c4cccc(F)c4)c(=O)n3C[C@@H]2[C@@H](CO)[C@@H]1C(=O)N[C@@H](C)c1ccccc1 was read as DUX4 inh inconclusive.
`CC(=O)NC[C@@H]1[C@H](c2ccc(-c3ccccc3F)cc2)[C@H](CO)N1C(=O)C1CC1` gave DUX4 inh -1, DUX4 inh difference 0 and DUX4 inh control -1.0.

Structures from the list above with sulfur:
For N#C[C@@H]1[C@H](c2ccccc2-c2ccc(F)cc2)[C@@H](CO)N1c1ncc(-c2ccccc2)s1 the results were DUX4 inh inconclusive.
Screening C[C@H](CO)N1C[C@H](C)[C@H](CN(C)S(=O)(=O)c2cccc(C#N)c2)OCc2cn(nn2)CCCC1=O returned DUX4 inh 10, DUX4 inh difference 8 and DUX4 inh control 2.3.
For COc1cccc(S(=O)(=O)Nc2ccc3c(c2)C(=O)N(C)[C@H]2CC[C@@H](CC(=O)O)O[C@@H]2CO3)c1 the results were DUX4 inh 1, DUX4 inh difference -1 and DUX4 inh control 1.8.
For COc1ccc(S(=O)(=O)N(C)C[C@H]2Oc3ccc(NC(=O)CCN4CCOCC4)cc3CC(=O)N([C@@H](C)CO)C[C@H]2C)cc1 the results were DUX4 inh -3, DUX4 inh difference -3 and DUX4 inh control -0.4.
Screening O=C(C[C@@H]1CC[C@H]2[C@@H](COC[C@@H](O)CN2Cc2ccc(Oc3ccccc3)cc2)O1)Nc1nccs1 returned DUX4 inh inconclusive.
Screening COc1cccc(S(=O)(=O)N2C[C@H](O)COC[C@@H]3O[C@H](CC(=O)N4CCN(c5ccccc5)CC4)CC[C@H]32)c1 returned DUX4 inh 5, DUX4 inh difference 4 and DUX4 inh control 0.9.
CCNC[C@@H]1[C@H](c2ccc(-c3ccc(F)cc3)cc2)[C@H](CO)N1S(C)(=O)=O was read as DUX4 inh 1, DUX4 inh difference 0 and DUX4 inh control 1.3.
Screening CCS(=O)(=O)Nc1ccc2c(c1)C(=O)N(C)[C@H]1CC[C@H](CC(=O)NC)O[C@@H]1CO2 returned DUX4 inh -1, DUX4 inh difference -1 and DUX4 inh control 0.3.
`CCS(=O)(=O)N1Cc2cc(C(=O)N(C)C)nc(-c3cccc(-c4ccc(C#N)cc4)c3)c2[C@@H]1CCO` gave DUX4 inh 0, DUX4 inh difference -3 and DUX4 inh control 3.1.
`C[C@H](CO)N1C[C@H](C)[C@H](CN(C)C(=O)Nc2ccc3c(c2)OCO3)OCCCC[C@H](C)Oc2ccc(NS(=O)(=O)c3ccc(F)cc3)cc2C1=O` gave DUX4 inh 1, DUX4 inh difference -1 and DUX4 inh control 1.7.
`CCS(=O)(=O)N1CC2(C1)[C@H](c1ccccc1)[C@H](CO)N2C(=O)C1CCC1` gave DUX4 inh 7, DUX4 inh difference 4 and DUX4 inh control 2.8.
`CCS(=O)(=O)Nc1ccc2c(c1)C(=O)N(C)[C@H]1CC[C@H](CC(=O)N[C@@H]3CCN(Cc4ccccc4)C3)O[C@H]1CO2` gave DUX4 inh 1, DUX4 inh difference 3 and DUX4 inh control -2.5.
